# Screening results from PubChem.
# Vaccinia pol inh = vaccinia E9 polymerase processive synthesis inhibition | 46,000 tested, 0.94% active | in vitro processive DNA synthesis, absorbance read-out; stronger effect = lower value; some inactives read as strong as hits | normalized absorbance, % (concentration not given with the values);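 active = replicate mean up to 90% and picked by the depositor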;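 also: 100% = median of the test wells of a plate; 100 nL library stock went into each well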
# Starred values were filed as active, the others as inactive. These rows are one share of the data; rates above refer to the full screens.
Structure | Vaccinia pol inh
CN1CCN(C(=O)c2cn(-c3ccccc3)nc2-c2cccnc2)CC1 | 101
O=C(O)c1ccc2ccccc2c1Br | 86
Cc1ccc(O)c(CCc2ccc(O)cc2)n1 | 102
O=S(=O)(c1ccccc1)N1CN2CCN(C2)C1 | 94
COc1ccc(CNC(=O)CCSCc2ccccc2C)cc1 | 101
COc1ccc(O)c(C2SCC(=O)N2Cc2ccccc2)c1 (centres undefined) | 104
CCn1ncc(C2=NOC(C(=O)N3CCN(c4ccccc4)CC3)C2)c1C (centres undefined) | 104
CC(Nc1ncnc2ccccc12)c1ccccc1 (centres undefined) | 103
O=C(C1CCC1)N1CCN(c2cc(C(F)(F)F)nc3ccccc23)CC1 | 105
Cc1ccc(-n2c(SCC(=O)NC3CC3)nc3ccccc3c2=O)c(C)c1 | 104
Nc1nccc(-c2ccc(Sc3ccccc3)cc2)n1 | 101
COc1cccc2c1Oc1nc(-c3ccccc3)nc(SCC(=O)N(C)c3ccccc3)c1C2 | 92
O=C1Nc2ccccc2/C1=N/c1sc2c(c1C(=O)NCCc1ccccc1)CCCC2 | 100
O=c1c(-c2cc(Br)cc3c2OCOC3)coc2ccccc12 | 100
CCOC(=O)C1=C(C)NC(SCC(=O)O)=NC1c1ccccc1 (centres undefined) | 100
CS(=O)c1sc(C(=O)OCc2ccccc2)c2c1C(=O)CC(C)(C)C2 (centres undefined) | 121
Oc1ccc(Nc2nc(N3CCOCC3)c3ccccc3n2)cc1 | 89
C=CCC1(Nc2ccccc2)CCCCC1 | 102
COc1ccc(-c2cc(=O)c3c(O)cc(O)cc3o2)cc1 | 99
Cc1cc(N2CCOCC2)nc(SCC(=O)N2CCCC2)n1 | 102
O=C(O)c1ccccc1SC1CC(=O)N(c2ccccc2)C1=O (centres undefined) | 95
CN(Cc1ccccc1)C(=O)CNc1cccc(C#N)c1 | 99
O=C(Nc1ccncc1)c1ccc(C(=O)c2ccccc2)cc1 | 101
Cc1cnc(N(C(=O)c2c(-c3ccccc3)noc2C)C(=O)c2c(-c3ccccc3)noc2C)c(C)n1 | 106
Nc1ccc(OCC(=O)N2CCOCC2)cc1 | 100
O=C(CSc1ccc(Cl)cc1)N1CCCC1 | 99
CC(C)N(C(=O)Cc1c(O)c2ccccc2[nH]c1=O)C(C)C | 98
CSc1s[nH]c(=O)c1C#N | 97
O=C(NCc1ccc2c(c1)OCO2)c1ccc2c(c1)OCO2 | 100
O=C(NC1CCCC1)C1CCN(C(=O)c2sccc2-n2cccc2)CC1 | 100
O=C(Cn1cnc2c(nnn2-c2cccc(Cl)c2)c1=O)NCC1CCCO1 (centres undefined) | 89
CC(=O)Nc1ccccc1C(=NC1CCCCC1)C(=O)NC1CCCCC1 | 88
CN1CCC(N(C)C(=O)C23CC4CC(CC(C4)C2)C3)CC1 | 113
Cn1nc(C(C)(C)C)cc1N | 102
O=C(NCc1ccc(Cl)cc1)c1ccc2c(c1)[nH]c(=S)n1c3ccccc3nc21 | 99
O=C(O)CCC(=O)N1CCN(C2c3ccccc3-c3ccccc32)CC1 | 103
CC1CCN(C(=O)/C=C/c2ccc3c(c2)OCO3)CC1 | 100
FC(F)(F)C1NCCc2c1[nH]c1ccccc21 (centres undefined) | 98
Cc1ccccc1-c1nc2sc(C)c(C)c2c(=O)o1 | 96
O=C(N=S1CCN(C(=O)c2ccc(Cl)cc2)CC1)c1ccc(Cl)cc1 | 101
CCOC(=O)N1CCC(NC(=O)c2ccccc2C(=O)O)CC1 | 104
COc1ccc(O)c(C=Nc2cc(C)ccn2)c1 | 97
Brc1ccc(CNc2ccc3c(c2)ncn3-c2ccccc2)cc1 | 100
CC(NC(=O)C1CCCN(S(=O)(=O)c2cccc3nonc23)C1)c1ccccc1 (centres undefined) | 101
O=C(Nc1cc(C(F)(F)F)ccc1Br)c1ccccc1F | 100
CN1C(=O)/C(=C(/C#N)C(=O)NCc2ccc(Cl)cc2)c2ccccc21 | 100
O=C(Cc1ccc(Cl)cc1)Nc1cccc2nsnc12 | 98
O=C(NCCCn1ccnc1)c1ccc(Oc2ccccc2)cc1 | 90
CCN1C(=O)c2ccccc2Sc2ccc(C(=O)NCCc3ccccc3)cc21 | 98
O=C(CNC(=O)c1cccs1)NCc1cccs1 | 108
S=c1cc(-c2ccccc2)oc(-c2ccccc2)c1 | 100
O=C(COC(=O)/C=C/c1ccc(Br)o1)Nc1ccccc1 | 102
S=c1[nH]n(Cc2ccccc2)c(=NCc2ccccc2)s1 | 101
CC1=CC(C)(C)N(Cc2ccccc2)c2ccccc21 | 99
O=C1c2ccccc2C(=O)N1CCc1nc(=S)[nH][nH]1 | 100
CCCCN(CC)S(=O)(=O)c1c(C)[nH]c(=O)[nH]c1=O | 102
O=c1cc(CO)oc(C(Nc2ccccn2)c2ccccc2O)c1O (centres undefined) | 100
O=C(Nc1ccc(O)c(-c2nc3ccccc3o2)c1)C1(c2ccccc2)CCCC1 | 103
Cc1ccc(C2N=C3C=C(NC(=O)c4cccnc4)C=CC3O2)cc1C (centres undefined) | 100
CS(=O)(=O)N1CCN(C2c3ccccc3-c3ccccc32)CC1 | 114

# 18 entries out of the list, arranged by SMILES length, lowest first.
Structure | Vaccinia pol inh
CSc1s[nH]c(=O)c1C#N | 97
O=C(CSc1ccc(Cl)cc1)N1CCCC1 | 99
O=C(CNC(=O)c1cccs1)NCc1cccs1 | 108
FC(F)(F)C1NCCc2c1[nH]c1ccccc21 (centres undefined) | 98
COc1ccc(CNC(=O)CCSCc2ccccc2C)cc1 | 101
CC1=CC(C)(C)N(Cc2ccccc2)c2ccccc21 | 99
Cc1cc(N2CCOCC2)nc(SCC(=O)N2CCCC2)n1 | 102
CC1CCN(C(=O)/C=C/c2ccc3c(c2)OCO3)CC1 | 100
O=C(COC(=O)/C=C/c1ccc(Br)o1)Nc1ccccc1 | 102
CCOC(=O)N1CCC(NC(=O)c2ccccc2C(=O)O)CC1 | 104
CS(=O)(=O)N1CCN(C2c3ccccc3-c3ccccc32)CC1 | 114
CC(C)N(C(=O)Cc1c(O)c2ccccc2[nH]c1=O)C(C)C | 98
CC(=O)Nc1ccccc1C(=NC1CCCCC1)C(=O)NC1CCCCC1 | 88
O=C(NC1CCCC1)C1CCN(C(=O)c2sccc2-n2cccc2)CC1 | 100
CCN1C(=O)c2ccccc2Sc2ccc(C(=O)NCCc3ccccc3)cc21 | 98
O=C(N=S1CCN(C(=O)c2ccc(Cl)cc2)CC1)c1ccc(Cl)cc1 | 101
CN1C(=O)/C(=C(/C#N)C(=O)NCc2ccc(Cl)cc2)c2ccccc21 | 100
CC(NC(=O)C1CCCN(S(=O)(=O)c2cccc3nonc23)C1)c1ccccc1 (centres undefined) | 101

# The results go on.
molecule,Vaccinia pol inh
Cc1ccc(Cn2c(=O)cc(C(=O)NC3CCCCC3)c3ccccc32)cc1,97
O=Nc1c(O)n(CC(=O)Nc2ccccc2)c2ccccc12,100
COC(=O)C1=C(C)NC(SCC(=O)c2cccs2)=C(C#N)C1c1ccc2c(c1)OCCO2 (centres undefined),101
CCCc1nc2nc(C)cc(Cl)n2n1,98
O=C(Nc1ccc(S(=O)(=O)Nc2ccccc2Oc2ccc(Cl)cc2Cl)cc1)C1CC1,96
COc1ccc(/C=C2/C(=O)c3ccc(C(=O)O)cc3C2=O)cc1OC,100
O=C(O)CCNS(=O)(=O)c1ccc2ccccc2c1,99
CC(C)C(CC(=O)O)N1Cc2ccccc2C1=O (centres undefined),94
CC1CCCCC1NC(=O)C1CCN(C(=O)c2cc3sccc3n2Cc2ccc(F)cc2)CC1 (centres undefined),100
CCOc1ccc(NC(=O)COC(=O)CCC2CCCCC2)cc1,104
CC(C)C[C@@H](C=O)NC(=O)[C@H](CC(C)C)NC(=O)[C@H](CC(C)C)NC(=O)OCc1ccccc1,100
Brc1ccccc1-c1nnc2sc(-c3cccs3)nn12,102
CCn1c(SCC(=O)Nc2cccc(Cl)c2Cl)nc2ccccc2c1=O,100
CC1(C)CC(=O)C=C(Sc2nc3cc(Cl)ccc3s2)C1,80
CC(=O)N/C(=C\c1ccccc1)C(=O)NC1CCCCC1C (centres undefined),91
CCCSc1nc2ccccc2c(=O)n1-c1ccccc1F,101
CC1CN=C(N(C(=O)Nc2ccccc2)c2ccc(OC(F)(F)F)cc2)S1 (centres undefined),100
CCN(CC)CC#CCN1c2ccccc2Sc2ccccc21,100
CCCSc1nnc2c3ccccc3n(Cc3ccccc3)c2n1,100
Cc1ccc(N(C(=O)c2cccs2)C2C=CS(=O)(=O)C2)cc1 (centres undefined),100

# Part of the list above, as labelled records:
SMILES: CCCSc1nc2ccccc2c(=O)n1-c1ccccc1F
  Vaccinia pol inh = 101

SMILES: CC1CN=C(N(C(=O)Nc2ccccc2)c2ccc(OC(F)(F)F)cc2)S1 (centres undefined)
  Vaccinia pol inh = 100

# (further entries)
molecule,Vaccinia pol inh
c1ccc(-c2nc3ccccc3s2)cc1,94
Fc1ccc(N=Cc2ccsc2)cc1F,102
S=c1[nH]cnc2sc(-c3ccccc3)cc12,102
C=CCn1c(O)c(C2=c3ccccc3=NC2=O)sc1=S,100
Cc1ccc(-n2nc(C(F)(F)F)cc2-c2cccs2)cc1,97
O=C(O)/C=C/c1ccc(N2C(=O)CC(Cc3ccccc3)C2=O)cc1 (centres undefined),99
N#C/C(=C\c1ccsc1)S(=O)(=O)c1ccc(F)cc1,101
CCCC(=O)c1ccc(N=Cc2ccc(Cl)cc2Cl)cc1,100
CCc1cccc(C)c1NC(=O)N(Cc1ccccc1)C(C)C,85
O=C1CC(Nc2ccc(N3CCOCC3)cc2)C(=O)N1Cc1ccccc1 (centres undefined),93
COC(=O)CN1C(=O)COc2ccc(C)cc21,102
NS(=O)(=O)c1ccc(CCNC(=O)c2ccccc2C(F)(F)F)cc1,109
O=C(CC(c1ccccc1)c1ccccc1)Nc1ncn[nH]1,102
Cc1ccc2c(c1)C(c1ccccc1)N(C(=O)C1CC1)CC(=O)N2 (centres undefined),88
O=C(Nc1ccccc1C(=O)N1CCCCCC1)c1cccc(S(=O)(=O)N2CCCCCC2)c1,101
Cc1ccc(/C(O)=C/c2nc3ccccc3[nH]c2=O)cc1C,100
c1ccc(C2=NC3(CCCC3)N=C2c2ccccc2)cc1,100
O=C(CSCc1c[nH]c2ccccc12)Nc1ccc2ccccc2c1,100
O=C(CN1CC(=O)Oc2ccccc21)Nc1ccc(O)cc1,103
COc1ccc(N=Cc2ccccc2F)cc1,52*
COC(=O)C1=CN(CC23CC4CC(CC(C4)C2)C3)C=C(C(=O)OC)C1c1cccs1,100
Cc1cccc(C(=O)Nc2nnc(-c3ccccc3C)s2)c1,102
O=C(NC(c1ccccc1)c1c(O)ccc2ccccc12)C1CCCCC1 (centres undefined),90
Cc1ccc(S(=O)(=O)Nc2cc(C(=O)NC3CCCC(C)C3C)ccc2N2CCCCC2)cc1 (centres undefined),92
CC(C)c1nc2ccc(NC(=O)C3CCCCC3)cc2[nH]1,102
CCN1CCN(c2ccc(N)cc2)CC1,92
COc1cc(OC)c2c(=O)c(-c3ccc(Cl)cc3)coc2c1,107
COc1ccc(OCC(O)CNC(=O)c2ccc(OC(F)(F)F)cc2)cc1 (centres undefined),100
COc1ccc2c(-c3ccccc3)cc(=O)oc2c1OC,97
N#CC[N+]12CCN(CC1)CC2,100
Fc1ccc(-c2nc3c4ccccc4c4ccccc4c3[nH]2)cc1,94
CNC(=S)NCc1sc2ccccc2c1C,99
Cc1ccc(S(=O)(=O)N2Cc3ccccc3CC2C(=O)NC(C)C)cc1 (centres undefined),98
O=C(C(c1ccccc1)c1ccccc1)N1CCc2ccccc21,96
CN(C)c1ccc(/C=N/O)c(N(C)C)c1C#N,103
CCCCC(CC)C(=O)Nc1cc(OC)ccc1OC (centres undefined),104
O=C1OCCN/C1=C/C(=O)c1ccccc1,103
CC(C)COc1ccc2c3c(c(=O)oc2c1)CCCC3,100
O=C(Nc1cc(Cl)ccc1Cl)C(O)(c1ccccc1)c1ccccc1,100
COC(=O)[C@H](Cc1ccc(O)cc1)NC(=O)c1cccc(Cl)c1,95
Cc1ccc(S(=O)C(F)(F)F)cc1 (centres undefined),100
Cn1c(Cn2cnc3ccccc32)nc2ccccc21,108
O=C(CSc1nc2ccc(NC(=O)C3CCCCC3)cc2s1)NCC1CCCO1 (centres undefined),100
Cc1ccc2c(Sc3ccc(Cl)cc3)c(C(=O)NCCN3CCOCC3)[nH]c2c1,104
CCCN(CCC)S(=O)(=O)c1ccc(-c2nc3ccc(C)cc3o2)cc1,134
O=C(COC(=O)c1c(F)cccc1F)c1cccc(Cl)c1,107
C/C(=N\N)c1c(C)cc(C)[nH]c1=O,103
N#CN=C(N)c1sc2nc3c(cc2c1N)CCCCC3,101
COc1cc2c(cc1OC)CN(C(=O)c1ccco1)CC2,102
CCN1CCN(c2cc(C)c3cc(NC(=O)c4ccncc4)ccc3n2)CC1,109
COc1ccc(C2C3=C(CCCC3=O)OC3=C2C(=O)CCC3)cc1O,94
CCCC(C)NC(=O)Cc1ccc(Cl)cc1 (centres undefined),102
CC(C)c1ncc(C(O)c2ccccc2)n1C (centres undefined),104
N#Cc1c(-c2ccccc2)cc(C2CC2)c(C#N)c1N,94
Cc1ccc(S(=O)(=O)CCSc2nc(C3CC3)cc(C(F)(F)F)c2C#N)cc1,97
CCOC(=O)/C=C(/C)Nc1ccc(OC)cc1,82
CCN(c1cccc2ccccc12)S(=O)(=O)c1ccccc1,99
Clc1ccc(-c2nn3c(-c4ccco4)nnc3c3ccccc23)cc1,100
COC(=O)Cn1nnc(-c2nnn(COC(C)=O)c2-c2ccccc2)c1-c1ccccc1,101
NC[C@@H]1O[C@H](O[C@@H]2[C@@H](CO)OC(O[C@@H]3[C@@H](O)[C@H](N)C[C@H](N)[C@H]3OC3O[C@H](CN)[C@@H](O)[C@H](O)[C@H]3N)[C@@H]2O)[C@H](N)[C@@H](O)[C@@H]1O (some centres undefined),95

# (next part)
molecule,Vaccinia pol inh
COc1ccc(CNC(=O)Cc2cn(C)c3ccccc23)c(OC)c1,104
Cn1c(N2CCNCC2)nc2ccccc21,97
COc1ccc(OC)c2c(=O)cc(C(=O)O)oc12,101
CC1Cc2cc(/C(O)=C3/C(=O)C(=O)N(CCN(C)C)C3c3cccs3)ccc2O1 (centres undefined),102
CNC(=O)C1=NCCCc2cc(OC)c(OC)cc21,100
Cc1ccc(NS(=O)(=O)c2cccc(C(=O)Nc3cc(C)on3)c2)cc1,100
O=C(O)COc1ccc2c(c1)CCC2,100
CCCCc1nc2ccccc2[nH]1,100
Cc1cc(NN)nc2ccccc12,91
CCN(CC)S(=O)(=O)c1ccc(NC(=O)c2ccccc2Cl)cc1,100
